FGF22 binding = shifts melting point of recombinant human FGF22 | 1.5% of 340,000 active | AID 651658 | Q9HCT0 | calls only at 9.99 µM | recombinant FGF22 thermal shift, SYPRO orange fluorescence; percent of sucrose octasulfate shift, DMSO zero;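 active = melting point raised past a set limit in the mean and every replicate; three in four hits are not shown here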
Target sequence (Q9HCT0 whole entry, looked up): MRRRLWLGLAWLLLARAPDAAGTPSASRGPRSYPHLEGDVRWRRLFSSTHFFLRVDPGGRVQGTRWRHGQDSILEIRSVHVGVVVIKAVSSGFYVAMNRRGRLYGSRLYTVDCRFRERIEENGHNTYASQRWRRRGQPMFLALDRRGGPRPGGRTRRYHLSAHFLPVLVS
Calls only; i = inactive; + = active, no number. These rows are one share of the data. The share of hits here may be higher or lower than overall.

SMILES	FGF22 binding
CO[C@H]1CN(C)C(=O)c2ccc(NC(=O)c3cnccn3)cc2OC[C@@H](C)N(C(C)=O)C[C@@H]1C	i
Cc1ccc(S(=O)(=O)Nc2ccc3c(c2)C(=O)N([C@@H](C)CO)C[C@H](C)[C@H](CN(C)CC2CCCCC2)OCCCC[C@@H](C)O3)cc1	i
CCNC(=O)N(C)[C@H]1C[C@@H](c2ccccc2)N(C(C)=O)C[C@H]1CO	i
Cc1ccccc1S(=O)(=O)N1CCCCN2[C@@H](CO)[C@@H](c3ccc(-c4ccccc4)cc3)[C@@H]2C1	i
C/C=C/c1ccc([C@H]2[C@H](CO)N[C@H]2CN(CC(C)C)C(=O)c2ccccn2)cc1	i
CO[C@H]1CN(C)C(=O)c2ccc(NS(=O)(=O)c3cccc(F)c3)cc2OC[C@@H](C)N(Cc2cc(F)ccc2F)C[C@@H]1C	i
COCC(=O)N1CC(=O)N2[C@H](CO)[C@@H](c3ccc(C#CCc4ccccc4)cc3)[C@H]2C1	i
C[C@@H]1CN([C@@H](C)CO)S(=O)(=O)c2ccc(-c3ccc(C(=O)N(C)C)cc3)cc2O[C@@H]1CN(C)C(=O)C1CCC1	i
CCC(=O)N1C[C@H](C)[C@H](OC)CN(C)C(=O)c2cc(NS(=O)(=O)CC)ccc2OC[C@@H]1C	i
C[C@H]1CN([C@@H](C)CO)C(=O)Cc2cc(NC(=O)Cc3cn(C)c4ccccc34)ccc2O[C@H]1CN(C)C	i
C[C@H]1CN([C@@H](C)CO)S(=O)(=O)c2ccc(-c3cccnc3)cc2O[C@@H]1CN(C)C	i
CCc1sc(N2[C@H](C#N)[C@H](c3ccccc3-c3ccccc3)[C@H]2CO)nc1C	i

Brought forward from above: six entries, then new ones.
SMILES	FGF22 binding
COCC(=O)N1CC(=O)N2[C@H](CO)[C@@H](c3ccc(C#CCc4ccccc4)cc3)[C@H]2C1	i
C[C@@H]1CN([C@@H](C)CO)S(=O)(=O)c2ccc(-c3ccc(C(=O)N(C)C)cc3)cc2O[C@@H]1CN(C)C(=O)C1CCC1	i
CCC(=O)N1C[C@H](C)[C@H](OC)CN(C)C(=O)c2cc(NS(=O)(=O)CC)ccc2OC[C@@H]1C	i
C[C@H]1CN([C@@H](C)CO)C(=O)Cc2cc(NC(=O)Cc3cn(C)c4ccccc34)ccc2O[C@H]1CN(C)C	i
C[C@H]1CN([C@@H](C)CO)S(=O)(=O)c2ccc(-c3cccnc3)cc2O[C@@H]1CN(C)C	i
CCc1sc(N2[C@H](C#N)[C@H](c3ccccc3-c3ccccc3)[C@H]2CO)nc1C	i
COc1cccc(NC(=O)Nc2ccc3c(c2)C(=O)N(C)[C@@H]2CC[C@H](CC(=O)O)O[C@@H]2CO3)c1	i
COCCNC(=O)C[C@H]1C=C[C@@H](NC(=O)NC2CCCCC2)[C@@H](CO)O1	i
CO[C@@H]1CN(C)C(=O)c2cc(NC(C)=O)ccc2OC[C@@H](C)N(Cc2ccc(F)cc2)C[C@H]1C	i
CC(C)C#Cc1cnc2c(c1)C(=O)N([C@@H](C)CO)C[C@H](C)[C@H](CN(C)C(=O)Nc1ccc(F)cc1)O2	i
O=C(C[C@H]1CC[C@H](NC(=O)c2ccc3c(c2)OCO3)[C@H](CO)O1)NCc1ccc(Cl)cc1	i
COCc1cn(CC[C@@H]2CC[C@@H](NC(=O)c3ccncc3)[C@H](CO)O2)nn1	i
O=C(C[C@@H]1C=C[C@@H](NS(=O)(=O)c2ccccc2)[C@H](CO)O1)NCc1ccc(Cl)c(Cl)c1	i
CC(C)CC#Cc1ccc2c(c1)O[C@@H](CN(C)C(=O)c1cccc(F)c1)[C@H](C)CN([C@@H](C)CO)S2(=O)=O	i
C[C@H](CO)N1C[C@H](C)[C@@H](CN(C)C(=O)Nc2cccc3ccccc23)OCCCC[C@H](C)Oc2ccc(NC(=O)Nc3ccc4c(c3)OCO4)cc2C1=O	+
C[C@@H]1CN([C@@H](C)CO)C(=O)c2cc(C#CCN(C)C)cnc2O[C@@H]1CN(C)C(=O)NC1CCCCC1	i
C[C@@H]1CN([C@H](C)CO)C(=O)Cc2cc(NC(=O)CCN3CCOCC3)ccc2O[C@H]1CN(C)C(=O)Nc1ccc(F)cc1	i
O=C(C[C@H]1CC[C@H]2[C@@H](COC[C@H](O)CN2C(=O)c2ccccc2F)O1)NCc1ccc(F)cc1	i
CO[C@H]1CN(C)C(=O)c2ccc(NS(=O)(=O)c3ccccc3C)cc2OC[C@H](C)N(C)C[C@H]1C	i
COCC(=O)N(C)C[C@@H]1Oc2cc(Br)ccc2S(=O)(=O)N([C@@H](C)CO)C[C@@H]1C	i
Cc1ccc(-c2ccc3c(c2)O[C@@H](CN(C)C(=O)Nc2ccc(C(F)(F)F)cc2)[C@@H](C)CN([C@@H](C)CO)S3(=O)=O)cc1	i
O=C(C[C@@H]1CC[C@@H](NC(=O)C2CC2)[C@@H](CO)O1)NCc1ccncc1	i
O=C(Cc1ccncc1)NCC[C@@H]1CC[C@@H](NC(=O)Nc2ccc(F)cc2)[C@H](CO)O1	i
C[C@@H]1CN([C@@H](C)CO)C(=O)c2cc(C3=CCCCC3)cnc2O[C@@H]1CN(C)Cc1ccccc1C(=O)O	i
Cc1cccc(S(=O)(=O)N(C)C[C@H]2OCc3cn(nn3)CCCC(=O)N([C@@H](C)CO)C[C@H]2C)c1	i
CCCNC(=O)N1CC2(CN(S(C)(=O)=O)C2)c2c(n(C)c3cc(OC)ccc23)[C@H]1CO	i
O=C(C[C@@H]1CC[C@@H]2[C@H](COC[C@H](O)CN2C(=O)c2ccc(F)cc2)O1)Nc1ccc(-c2ccccc2)cc1	i
C[C@@H]1CN([C@@H](C)CO)C(=O)c2c(c3ccccc3n2C)-c2ccccc2CO[C@@H]1CN(C)C(=O)C1CC1	i
Cc1ccc(-c2ccc([C@@H]3[C@H](CO)N4CCCCN(C)C[C@@H]34)cc2)cc1	i
COc1ccc(CN(C)C[C@H]2OCCCC[C@H](C)Oc3ccc(NC(=O)C4CCCCC4)cc3C(=O)N([C@H](C)CO)C[C@H]2C)cc1	i
CC(C)[C@H]1COCn2nncc2CC[C@H](C)C(=O)N1	i
CN1CCN(C(=O)C[C@H]2C=C[C@H](NC(=O)Nc3ccccc3F)[C@@H](CO)O2)CC1	i
C[C@H]1CN([C@@H](C)CO)C(=O)c2cc(-c3ccc(F)cc3)cnc2O[C@@H]1CN(C)Cc1cncnc1	i
Cc1ccc(S(=O)(=O)N[C@@H]2CC[C@@H](CCNC(=O)C3CCCCC3)O[C@H]2CO)cc1	i
COc1ccc(-c2ccc3c(c2)O[C@@H](CN(C)CC2CCOCC2)[C@@H](C)CN([C@@H](C)CO)S3(=O)=O)cc1	i
COc1ccc(S(=O)(=O)Nc2ccc3c(c2)CC(=O)N([C@@H](C)CO)C[C@H](C)[C@H](CN(C)Cc2ccncc2)O3)cc1	i
O=C(C[C@@H]1C[C@@H]2c3cc(NC(=O)Cc4ccncc4)ccc3O[C@@H]2[C@H](CO)O1)NCc1ccc2c(c1)OCO2	i
CS(=O)(=O)N1[C@H](C#N)[C@H](c2ccccc2)[C@H]1CO	i
COc1ccccc1-c1cn(CC[C@@H]2CC[C@@H](NS(=O)(=O)c3ccccc3C)[C@@H](CO)O2)nn1	i
COCC#Cc1ccc2c(c1)O[C@@H](CN(C)C(C)=O)[C@H](C)CN([C@@H](C)CO)S2(=O)=O	i
O=C(Nc1cccc(Cl)c1)N[C@@H]1CC[C@H](CCNC(=O)C2CCCC2)O[C@@H]1CO	i
COc1ccccc1NC(=O)N[C@@H]1CC[C@@H](CCn2cc(C3(O)CCCC3)nn2)O[C@@H]1CO	i

Entries above marked active in FGF22 binding:
SMILES	FGF22 binding
C[C@H](CO)N1C[C@H](C)[C@@H](CN(C)C(=O)Nc2cccc3ccccc23)OCCCC[C@H](C)Oc2ccc(NC(=O)Nc3ccc4c(c3)OCO4)cc2C1=O	+

Further entries:
SMILES	FGF22 binding
C[C@H]1CN([C@@H](C)CO)C(=O)c2cc(-c3cncnc3)cnc2O[C@@H]1CN(C)Cc1ccccc1	i
COC(=O)[C@]12C[C@H](CC(=O)NCCCN3CCCC3=O)C(=O)N(Cc3ccccc3)C1=C[C@H](C(C)(C)C)O[C@@H]2C	i
CO[C@H]1CN(C)C(=O)c2cc(NC(=O)C3CCC3)ccc2OC[C@H](C)N(C(=O)NC(C)C)C[C@H]1C	i
O=C(C1CC1)N1CCCCN2[C@@H](CO)[C@@H](c3ccc(C#CC4CC4)cc3)[C@@H]2C1	i
C[C@@H]1CN([C@@H](C)CO)C(=O)Cc2cc(NC(=O)C3CC3)ccc2O[C@H]1CN(C)S(=O)(=O)c1cccs1	i
COc1ccc(C#Cc2cnc3c(c2)C(=O)N([C@H](C)CO)C[C@H](C)[C@H](CN(C)S(=O)(=O)c2cccs2)O3)cc1OC	i
C[C@H]1CN([C@@H](C)CO)C(=O)c2cccc(NC(=O)Nc3ccc(F)cc3)c2O[C@@H]1CN(C)C(=O)Nc1cccc2ccccc12	i
CO[C@H](CN(C)CC1CCOCC1)[C@@H](C)CN(C(=O)Nc1ccc(F)cc1)[C@@H](C)CO	i
CCCN1C[C@H](C)[C@@H](OC)CN(C)C(=O)c2ccc(NC(=O)C3CCC3)cc2OC[C@@H]1C	i
Cc1ccc(S(=O)(=O)Nc2ccc3c(c2)C(=O)N([C@@H](C)CO)C[C@H](C)[C@@H](CN(C)S(=O)(=O)c2c(C)noc2C)OCCCC[C@@H](C)O3)cc1	i
COc1ccc(NC(=O)Nc2ccc3c(c2)C(=O)N([C@H](C)CO)C[C@@H](C)[C@@H](CN(C)S(=O)(=O)c2ccc(OC)cc2)OCCCC[C@H](C)O3)cc1	i
CO[C@H]1CN(C)C(=O)c2cc(NS(=O)(=O)c3ccc(-c4ccccc4)cc3)ccc2OC[C@@H](C)NC[C@@H]1C	i
O=C(C[C@H]1CC[C@H]2[C@@H](COC[C@@H](O)CN2S(=O)(=O)c2ccc(F)cc2)O1)N[C@H]1CCN(Cc2ccccc2)C1	i
COC(=O)[C@@H]1[C@@H](CO)[C@@H]2Cn3c(ccc(-c4ccccc4)c3=O)[C@@H]2N1C(=O)CC1CC1	i
C[C@H](CO)N1C[C@H](C)[C@H](CN(C)C(=O)Nc2cccc3ccccc23)Oc2ccc(NC(=O)Cc3cn(C)c4ccccc34)cc2CC1=O	i
C[C@@H]1CN([C@H](C)CO)C(=O)c2cc(C#Cc3cccnc3)cnc2O[C@H]1CN(C)S(C)(=O)=O	i
CCCN1C[C@H](C)[C@@H](OC)CN(C)C(=O)c2cc(NC(=O)c3ccccc3F)ccc2OC[C@@H]1C	i
COc1ccc(S(=O)(=O)N[C@H]2CC[C@H](CCn3cc(C(C)C)nn3)O[C@@H]2CO)cc1	i
O=C(C[C@H]1C=C[C@@H](NC(=O)Nc2ccc(C(F)(F)F)cc2)[C@H](CO)O1)NCc1cc(F)cc(F)c1	i
Cc1ccc(S(=O)(=O)Nc2ccc3c(c2)C(=O)N([C@@H](C)CO)C[C@H](C)[C@@H](CN(C)C(=O)NC(C)C)OCCCC[C@H](C)O3)cc1	i
CCS(=O)(=O)N1CC2(C1)[C@H](c1ccccc1)[C@@H](CO)N2Cc1ccccn1	i
C[C@@H]1CN([C@H](C)CO)C(=O)c2cc(NC(=O)Nc3ccc(C(F)(F)F)cc3)ccc2O[C@H]1CN(C)Cc1ccccc1	i
Cc1ccc(S(=O)(=O)Nc2cccc3c2O[C@@H](CN(C)S(=O)(=O)c2c(C)noc2C)[C@@H](C)CN([C@H](C)CO)C3=O)cc1	i
C[C@@H]1CN([C@@H](C)CO)S(=O)(=O)c2ccc(/C=C/c3ccccc3)cc2O[C@@H]1CN(C)C	i
C[C@@H]1CN([C@H](C)CO)C(=O)c2cc(NC(=O)NC3CCCCC3)ccc2O[C@H]1CN(C)Cc1ccc(Cl)c(Cl)c1	i
CO[C@@H]1CN(C)C(=O)c2cc(NC(=O)Nc3ccccc3Cl)ccc2OC[C@@H](C)N(C)C[C@H]1C	i
Cc1noc(C)c1NC(=O)Nc1ccc2c(c1)CC(=O)N([C@H](C)CO)C[C@@H](C)[C@H](CN(C)C(=O)Nc1ccc(F)cc1)O2	i
C[C@@H]1CN([C@H](C)CO)C(=O)c2cc(NC(=O)c3ccncc3)ccc2O[C@@H](C)CCCCO[C@@H]1CN(C)S(=O)(=O)c1ccc(F)cc1	i
CCC(=O)N(C)C[C@@H]1Oc2cc(C#Cc3ccccc3)ccc2S(=O)(=O)N([C@@H](C)CO)C[C@H]1C	i
CC(C)NC(=O)N(C)C[C@H]1OCCCC[C@@H](C)Oc2ccc(NS(C)(=O)=O)cc2C(=O)N([C@@H](C)CO)C[C@H]1C	i
Cc1noc(C)c1S(=O)(=O)Nc1ccc2c(c1)C(=O)N([C@H](C)CO)C[C@H](C)[C@@H](CN(C)S(C)(=O)=O)OCCCC[C@H](C)O2	i
C[C@@H]1CN([C@H](C)CO)C(=O)Cc2cc(NC(=O)Nc3ccccc3)ccc2O[C@@H]1CN(C)C(=O)Nc1ccc(F)cc1	i
C[C@H]1CN([C@@H](C)CO)S(=O)(=O)c2ccc(C#Cc3ccncc3)cc2O[C@H]1CN(C)C	i
COc1ccc(S(=O)(=O)N(C)C[C@@H]2Oc3cc(C#CC4CCCCC4)ccc3S(=O)(=O)N([C@H](C)CO)C[C@H]2C)cc1	i
CCCN1C[C@@H](C)[C@@H](OC)CN(C)C(=O)c2cc(NC(=O)NC3CCCC3)ccc2OC[C@H]1C	i
COC(=O)c1cn(CC(=O)N2CCC3(CC2)C(=O)NCN3c2ccccc2)nn1	i
CN(C)C(=O)C[C@@H]1CC[C@@H]2[C@H](COC[C@H](O)CN2C(=O)C2CC2)O1	i
CCC(=O)NC[C@H]1[C@H](c2ccc(C3=CCCC3)cc2)[C@@H](CO)N1C(C)=O	i

Two entries picked at random from the list so far, as already listed:
SMILES	FGF22 binding
C[C@@H]1CN([C@H](C)CO)C(=O)c2cc(NC(=O)NC3CCCCC3)ccc2O[C@H]1CN(C)Cc1ccc(Cl)c(Cl)c1	i
COC(=O)c1cn(CC(=O)N2CCC3(CC2)C(=O)NCN3c2ccccc2)nn1	i
